High-throughput results as filed in PubChem.
NPYLR7 ag – activates Aedes aegypti NPYLR7 receptor; actives 0.15% (n = 270,000); activation, % at 10 µM; HEK293T NPYLR7/Galpha15, GCaMP6s calcium fluorescence; in the data active = activation above about 40%;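 note: 0% = vehicle and 100% = reference agonist at the receptor; some compounds past the cut are filed as inactive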
NPYLR7 ag max-min – recorded beside NPYLR7 ag, whose call it bears; activation, %; measured here: Max-Min RFU normalised activation; some inactives read as strong as hits;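 span of the calcium signal over five minutes; 0% = vehicle and 100% = native peptide agonist; compound fluorescence can raise it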
An asterisk follows results filed as active; & = joins results of further samples. These rows are one share of the data, so the mix of outcomes need not match the whole.

A first look:
SMILES	NPYLR7 ag	NPYLR7 ag max-min
Cc1ccc(C)c(OCC(O)CN2C(=O)c3ccccc3C2=O)c1C (stereo not given)	19	5
CC(c1ccccc1)N(C)Cc1nc2scc(-c3ccc(Cl)cc3)c2c(=O)[nH]1 (stereo not given)	-2	-1
C#Cc1cccc(Nc2ncnc3cc(OCCOC)c(OCCOC)cc23)c1	-17&-11	-28&-21
CC(NCc1cc(Br)cs1)c1cccnc1 (stereo not given)	8	0
O=C(c1cc2ccccc2[nH]1)N1CCC2(CCCN(Cc3cccnc3)C2=O)C1 (stereo not given)	17	12

The list itself, from the start:
SMILES	NPYLR7 ag	NPYLR7 ag max-min
Cc1ccc(C)c(OCC(O)CN2C(=O)c3ccccc3C2=O)c1C (stereo not given)	19	5
CC(c1ccccc1)N(C)Cc1nc2scc(-c3ccc(Cl)cc3)c2c(=O)[nH]1 (stereo not given)	-2	-1
C#Cc1cccc(Nc2ncnc3cc(OCCOC)c(OCCOC)cc23)c1	-17&-11	-28&-21
CC(NCc1cc(Br)cs1)c1cccnc1 (stereo not given)	8	0
O=C(c1cc2ccccc2[nH]1)N1CCC2(CCCN(Cc3cccnc3)C2=O)C1 (stereo not given)	17	12
CCC1(c2ccc(Cl)c(Cl)c2)NC(=S)N(c2ccc(C)c(C)c2)N1 (stereo not given)	7	8
Fc1ccc(CN2CCCn3cccc3C2c2ccccc2Cl)cc1Cl (stereo not given)	7	26
Cc1c(C(=O)N2CCN(C(=O)C(C)C)CC2)cc(-c2ccccc2)n1-c1ccccc1Cl	-10	0
COC(=O)c1ccc(CN2CCN(c3ccccc3Cl)C(=O)C2C)cc1 (stereo not given)	3	10
COc1ccccc1/C=C/C=C1N=C(/C=C/c2ccccc2OC)OC\1=O	-10	-13
O=C(CC1NC(=O)N(c2ccc(F)cc2)C1=O)NCCc1cccc(Cl)c1 (stereo not given)	3	0
Cc1ncc2c(c1CNC(=O)Cc1ccsc1)CCN(C(=O)C(c1ccccc1)c1ccccc1)C2	9	-2

Reprinted at random: two compounds from above
SMILES	NPYLR7 ag	NPYLR7 ag max-min
Fc1ccc(CN2CCCn3cccc3C2c2ccccc2Cl)cc1Cl (stereo not given)	7	26
Cc1c(C(=O)N2CCN(C(=O)C(C)C)CC2)cc(-c2ccccc2)n1-c1ccccc1Cl	-10	0

Later entries:
SMILES	NPYLR7 ag	NPYLR7 ag max-min
CCCCOc1ccc(C(=O)NC(C(=O)Nc2nnc(-c3cccc(OC)c3)s2)C(C)CC)cc1 (stereo not given)	19	22
CC1COCCN1C(=O)NCc1ccc(N(C)c2ccccc2)c(F)c1 (stereo not given)	3	1
CCOC(=O)CC1C(=O)NCCN1C(=O)Nc1cc(OC)ccc1OC (stereo not given)	-5	-10
CC1CCN(c2nc3c(S(=O)(=O)c4ccccc4)nnn3c3ccsc23)CC1	5	9
Cc1nc2ncnn2c(C)c1CCC(=O)NC1(C)CCS(=O)(=O)C1 (stereo not given)	10	14
CSc1nn(C(=O)CCl)c(N)c1S(=O)(=O)c1ccccc1	-2	-9
COc1ccc(OC)c(-c2ccc(=O)n(CCNC(=O)Nc3ccc(Cl)cc3)n2)c1	7	12
CCN1CCC(N2CCC(C(=O)Nc3ccc(Oc4ccccc4F)cc3)CC2)CC1	14	6
Cn1cc(OCc2ccccc2)c(=O)cc1C(=O)Nc1ccc(Cl)cc1	1	0
Clc1ccc2c(NC3CC3)nc(-c3ccccc3Cl)nc2c1	-3	11
CC(C)(C)c1ccc(C(=O)N2CCCC2(C)C(=O)O)cc1 (stereo not given)	-3	-7
CC(CCc1ccccc1)NC(=O)CC1CSc2nc3c(c(=O)n21)CCCC3 (stereo not given)	-4	-7
CCc1[nH]n(-c2ccc(Cl)c(Cl)c2)c(=O)c1C1=C(N(C)Cc2ccccc2)C(=O)N(Cc2ccccc2)C1=O	3	14
CCC(C(=O)N1CCC[C@@H]1C(=O)NCCCNC(=O)c1ccc(F)cc1)c1ccccc1 (stereo not given in full)	25	28
O=C(c1ccc(F)cc1)N(c1ccccn1)C1CCCCC1	-3	-6
CC(C)=CCN1CCN(Cc2ccc(C)s2)CC1CCO (stereo not given)	1	-2
CCOc1ccc(C(=O)Oc2coc(CSc3nncn3C)cc2=O)cc1	-2	-8
O=C1C2C3C=CC(C3)C2C(=O)N1Cc1ccco1 (stereo not given)	2	-1
COCCCn1cc(C(=O)Nc2cccnc2)c2nn(-c3ccccc3)c(=O)c-2c1	7	6
CC(=O)NC(C)C(=O)Nc1ccc(-c2nc3ccccc3n2C)cc1 (stereo not given)	5	5
Cc1cc(C(=O)N(C)c2ccc(-c3onc4c3CCC4)cc2)c(C)o1	9	13
c1ccc2c(c1)ncn2-c1ccc(OCCN2CCCC2)cc1	8	-1
Cn1c(=O)c2c(SCC(=O)Nc3nccs3)nc(-c3ccc(Cl)cc3)nc2n(C)c1=O	37	31
O=C([C@@H]1CCCN1)N1CCCC1Cc1ccccc1 (stereo not given in full)	9	3
COc1ccc(NC(=O)CSc2ccc3nnc(CCNC(=O)c4ccccc4)n3n2)cc1OC	4	-1
Cc1ccc(N2C(=O)/C(=C/c3ccc(Cl)cc3)C=C2c2ccccc2)c(C)c1	1	4
COc1cccc(NC(=O)CCC2CCN(C(=O)CCc3c[nH]c4ccccc34)CC2)c1	0	1
Cc1ccccc1CN1C(=O)C2(NCCS2)c2ccccc21 (stereo not given)	26	32
COC(=O)[C@@H]1CCCN1C(=O)CC1(c2ccccc2C)CC(=O)N(CCN(C)C)C1=O (stereo not given in full)	3	3
CC(C)CCCC1CN(C(=O)C2CCN(C(=O)N(C)C)CC2)CCO1 (stereo not given)	14	6
COCC(c1ccccn1)N(C)C(=O)c1cnc(-c2ccccc2)nc1 (stereo not given)	18	8
CN1C(=O)c2ncccc2[C@H](CC(=O)O)[C@H]1C(=O)NCCc1ccccc1	2	7
O=C(c1ccc(-n2cnnc2)cc1)N(CC#Cc1ccccc1)C1CCCC1	10	8
O=C(Cn1nc2c(c1NC(=O)CCc1ccccc1)CSC2)NCCc1ccccc1	-4	3
O=C(NCCN1CCOCC1)c1cc(-c2ccc(F)cc2)nc2ccc(Br)cc12	-12	-13
O=C(Nc1ccc2oc(C3CC3)nc2c1)N1CCCCCCC1	1	1
O=C(CN1C(=O)/C(=C/c2ccccc2)SC1=S)NN1C(=O)CSC1=S	-4	-7
S=C(Nc1ccc(Cl)cc1Cl)Nn1cnnc1	3	1
CCc1nc2nc3c(cn2n1)C(=O)CCC3	-1	-3
Cn1cccc1C1CCCN1C(=O)NCc1ccco1 (stereo not given)	1	2
CC(NC(=O)C12CC3CC(CC(C3)C1)C2)C(=O)NN=Cc1ccc([N+](=O)[O-])o1 (stereo not given)	-6	-13
O=C(CCNC(=O)C(=O)N1CCCCCC1)Nc1ccccc1F	12	11
Cc1ccc(C)c2sc(N(CCCN3CCOCC3)C(=O)c3ccc(F)cc3F)nc12	-2	-6
Cn1cc(-c2ccc3c(c2)COCC(=O)N3CCN2CCOCC2)cn1	8	2
Cc1cc2ncc(C(=O)O)c(C)n2n1	-2	-4
Cc1cn2c3c(=O)n(C)c(=O)n(C)c3nc2n1Cc1ccc(F)cc1	5	1
O=C(CCl)N1CCC(Cc2ccccc2)CC1	-3	-12
CCC(C)NC(=O)CCN(CCc1ccccc1)c1nc(-c2ccc(OC)cc2)nc2ccccc12 (stereo not given)	10	4

In the list so far, these have a COOH group:
SMILES	NPYLR7 ag	NPYLR7 ag max-min
CC(C)(C)c1ccc(C(=O)N2CCCC2(C)C(=O)O)cc1 (stereo not given)	-3	-7
CN1C(=O)c2ncccc2[C@H](CC(=O)O)[C@H]1C(=O)NCCc1ccccc1	2	7
Cc1cc2ncc(C(=O)O)c(C)n2n1	-2	-4

Later entries.
SMILES	NPYLR7 ag	NPYLR7 ag max-min
O=C(CCC1CCCN(C(=O)c2cc3ccccc3oc2=O)C1)NCc1ccccc1F (stereo not given)	-6	-13
Cc1ccc(S(=O)(=O)n2ccn(C(=O)CC(C)C)c2=O)cc1	4	2
Nc1nc(Sc2cccs2)cc(N2CC[C@H](CO)[C@H](O)C2)n1	-1	-2
Cc1c(Cl)cccc1NC(=O)CSc1nc(=O)n(CCCN2CCOCC2)c2c1CCCC2	6	8
Cc1cc(C(C)(C)C)ccc1OCC(=O)N=Nc1c(O)n(C)c2c(C)cc(Br)cc12	3	-4
CC12CCC(C(N)=O)(c3nc4ccccc4nc31)C2(C)C (stereo not given)	-3	-1
CCCCCNc1cc(C)nc2c(-c3ccc(C)cc3)c(C)nn12	-8	-10
CCCc1c(C(=O)O)[nH]c(C)c1C(C)=O	7	5
CC(=O)N1CCc2cc(S(=O)(=O)NC(C)C)ccc21	3	-1
O=C(C1CC1)N(Cc1nccn1Cc1ccc(F)cc1)CC1CCCO1 (stereo not given)	4	12
Cc1noc(C)c1S(=O)(=O)NCC1(c2ccccc2)CC1	-3	-4
Cc1nn(-c2ccccc2)c2c1P(=O)(N1CCCC1)C(=C1N(C)c3ccccc3C1(C)C)C=N2 (stereo not given)	8	13
COc1cccc(CCc2ccccc2C(=O)N2C[C@@H]3[C@H](C2)[C@H]2CC[C@@H]3O2)c1	8	4
CCn1ccc(C(=O)Nc2cc(C)nn2-c2nc3c(F)cccc3s2)n1	-7	-13
Cc1ccc2nc(C3CCCN3CCc3ccccn3)[nH]c2c1 (stereo not given)	5	-3
O=C1CCCN1CCSc1ccc(F)cc1F	3	3
Cc1cc(C)cc(OCC(=O)NNC(=O)C2COc3ccccc3O2)c1 (stereo not given)	-1	-7
COc1ccc(OCC(O)CN(Cc2ccc(C)o2)C2CC2)cc1 (stereo not given)	19	22
CCc1cc(-c2nccn2CCCc2nn[nH]n2)on1	13	11
NC(=O)c1ccsc1NC(=O)c1ccc([N+](=O)[O-])s1	-6	-7
COCCCNC(=O)c1cc(NC(=O)c2cccc3ccccc23)ccc1N1CCCC1	26	27
CCN1CCN(C(=O)c2cccc(OC3CCN(C(=O)C4CC4)CC3)c2)[C@@H](C)C1=O	2	-1
CCSc1cc(C)nc2c(-c3ccccc3)c(C)nn12	-1	-5
CC(=O)c1cc(C(=O)N2CCCC(C(=O)c3cccc(C(F)(F)F)c3)C2)cs1 (stereo not given)	14	4
O=c1cccnn1CCNS(=O)(=O)c1ccc(OC(F)(F)F)cc1	0	-2
COc1cccc(CN(Cc2ccc(F)cc2)CC(O)COc2ccccc2C)c1 (stereo not given)	24	31
CCOC(=O)C1=C(C)NC(=O)NC1c1ccc(N(CC)CC)cc1 (stereo not given)	3	2
CCNC(=O)C1(C)CCN1Cc1cc(-c2ccccc2)n(C)n1 (stereo not given)	3	1
O=C1c2ccccc2C(=O)C1C1=Nc2ccccc2NC(c2ccc(Br)cc2)C1 (stereo not given)	0	-2
C=CCN(CC(=O)N1CCc2sccc2C1COc1ccc(F)cc1)C(=O)COC (stereo not given)	-3	0
CCNC(=O)N1CCC(C(NC(=O)c2ccccc2F)C(=O)NC(C)CC)CC1 (stereo not given)	2	2
Cc1ccc(S(=O)(=O)CCC(=O)N(CCCN(C)C)c2nc3c(Cl)cccc3s2)cc1	-7	-10
CCOc1cc(/C=C2\N=C(c3ccccc3)OC2=O)ccc1OC(C)=O	12	16
Cn1cc(-c2nc3c([nH]2)c(-c2ccccc2)nn3C)c(-c2ccccc2)n1	12	11
CCOC(=O)Cn1cnc(=O)c(C#N)c1C	9	-2
Cc1nn(CC(=O)Nc2ccc(O)cc2)c(=O)c2ccccc12	9	6
Cc1ocnc1C(=O)N[C@H]1C[C@H]2CN(C)CCN2C1	-5	-2
NC(=S)Cc1nc2n(n1)Cc1ccccc1-2	-1	-4
COc1ccccc1C(C)NC(=S)NCc1ccco1 (stereo not given)	-2	-3
O=C(Cc1ccc(-c2ccccc2)cc1)NC1CCN2CCCCC12 (stereo not given)	3	1
c1ccc2c(NCCNc3ncnc4ccccc34)cccc2c1	5	11
Cc1ccc(-c2nc3ccccn3c2NC(C)(C)C)cc1	3	3
COC(=O)CCc1c(C)nn(-c2ccc(C(=O)NCCc3ccccc3F)cc2)c1C	-1	-4
CCCCN(C)CCNC(=O)CCCn1c(=S)[nH]c2cc3c(cc2c1=O)OCO3	-7	-2
CCCc1ccc(OCC(=O)c2ccc(O)c(C)c2O)cc1	15	6
CCN(CCC#N)Cc1nc(N)nc(Nc2ccc(F)cc2)n1	-2	-5
Cc1nn(Cc2ccccc2F)c(=O)c2c1cnn2-c1cccc(Cl)c1	3	-3
CC1(C(=O)NS(=O)(=O)c2ccc(C#N)cc2)CCN1C(=O)CC(c1ccccc1)c1ccccc1 (stereo not given)	0	-8
CCCc1nc(CN(C)C(=O)c2csc3c2CCCC3)no1	2	2
Cc1noc(C)c1C(=O)OCc1csc(Nc2ccccc2)n1	0	-4
Cn1c(=O)c2c(ncn2CC#N)n(C)c1=O	-1&34	5&38
